Assay outcomes: PubChem, National Center for Advancing Translational Sciences (NCATS)
Sfp inh: inhibitors of Bacillus subtilis Sfp phosphopantetheinyl transferase; Biochemical Sfp PPTase activity, qHTS; AID 1490; Q9F4F7; Potency, µM, for the others: max response, negative = inhibition, actives largely listed as inhibitors; 3.5% of 310,000 active; active = well fitted inhibition curve with a large enough effect; inconclusive = small, poorly fitted or top-dose-only effect, or another doubt; inactive = no such curve, though single readings can be large or run the other way;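 note: the enzyme is Sfp with the accession as filed and its product quenches rhodamine fluorescence; potency is the fitted concentration of half-maximal effect; 0% = enzyme reaction without inhibitor and -100% = no enzyme wells; top concentration of the series not given in the record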
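Buffer: 50 mM Hepes-Na pH 7.6, 10 mM MgCl2, 0.01% Nonidet P-40, 0.01% BSA. Enzyme 15 nM, pre-exposed to compound 15 min; substrates then added and fluorescence change tracked over 30 min.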
TRPML1 blocker: human mucolipin-1 channel inhibition; AID 624415; activity change, negative = inhibition, % (concentration not given with the values); TRPML1-inducible cells, Ca2+ dye fluorescence, FDSS; hits give low values; inhibition of EC80 agonist-evoked calcium signal; 0.02% of 390,000 active; Q9GZU1; in the data active means activity change below about -50%; inconclusive means about -30% to -50%; inactive means above about -30%;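 note: stimulus is agonist 54-4 at its EC80 concentration; % is set by controls: 0 for no effect and ±100 for the full control effect; compound concentration not given in the record; the text of the record puts the active cut at -80%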
Target sequence (Q9GZU1 whole entry, looked up): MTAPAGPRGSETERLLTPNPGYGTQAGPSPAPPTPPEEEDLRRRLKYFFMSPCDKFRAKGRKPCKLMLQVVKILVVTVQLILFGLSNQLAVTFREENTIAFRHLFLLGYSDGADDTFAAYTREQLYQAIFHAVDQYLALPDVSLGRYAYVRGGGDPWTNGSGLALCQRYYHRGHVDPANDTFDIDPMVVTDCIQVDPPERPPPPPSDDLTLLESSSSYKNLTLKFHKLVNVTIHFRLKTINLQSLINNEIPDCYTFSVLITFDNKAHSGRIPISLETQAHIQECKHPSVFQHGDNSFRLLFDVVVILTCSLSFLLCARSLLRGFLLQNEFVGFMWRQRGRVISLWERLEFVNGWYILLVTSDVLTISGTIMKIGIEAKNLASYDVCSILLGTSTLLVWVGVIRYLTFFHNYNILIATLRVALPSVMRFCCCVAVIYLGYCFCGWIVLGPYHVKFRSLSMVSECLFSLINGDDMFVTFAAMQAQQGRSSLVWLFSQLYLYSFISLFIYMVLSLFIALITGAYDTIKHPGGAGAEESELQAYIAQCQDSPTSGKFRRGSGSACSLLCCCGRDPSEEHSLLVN
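TRPML1-DL cells, Tet-induced overnight (~16 h, 37 °C) at 1,500 cells/well, were loaded with Ca8 no-wash dye plus quencher for 45-90 min at room temperature. Compounds were pinned during FDSS kinetic reading; agonist 54-4 at EC80 (4 uM final) then added.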
ClpP mod: qHTS Assay for Activators of ClpP; ATP-dependent Clp protease proteolytic subunit (Bacillus subtilis (strain 168)), P80244; Potency, µM (series often up to 57.5 µM), without a hit: top-dose activity change, negative = active; 1.9% of 340,000 active; purified B. subtilis ClpP, FRET peptide cleavage, 20 min; active = well fitted falling curve with a large enough effect; inconclusive = small, poorly fitted or top-dose-only effect; inactive = no such curve, though single readings can be large or run the other way; note: potency is the fitted concentration of half-maximal effect; the source files actives as falling curves though it sought activators and does not explain the sign; nearly all actives have a fitted effect of over 65% in size; many hits overshoot -100%
Target sequence (P80244 whole entry, looked up): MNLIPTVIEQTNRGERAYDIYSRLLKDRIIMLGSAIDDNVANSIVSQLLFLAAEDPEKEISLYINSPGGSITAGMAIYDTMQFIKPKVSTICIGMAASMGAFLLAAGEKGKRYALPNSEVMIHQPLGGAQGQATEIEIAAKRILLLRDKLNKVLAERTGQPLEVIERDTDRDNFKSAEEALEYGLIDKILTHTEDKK
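Purified B. subtilis ClpP, 10 microg/mL final in Tris/HCl pH8 with KCl, BSA, glycerol and Tween-20, cleaved an Abz/nitrotyrosine-quenched decapeptide. Fluorescence (ex 320, em 430) was read at 0 and 20 min at room temperature. Delta was normalized to 5.8 microM ADEP and DMSO/no-enzyme controls.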
PINK1 expr mod: modulators of PINK1 expression; AID 624263; PINK1 immunofluorescence, high-content cytometry, 24 h; 0.2% of 410,000 active; Potency, µM (series often up to 76.6 µM), inactives show at the highest dose activation (PINK1 increase), hits mostly activators; active = well fitted activation curve with a large enough effect; inconclusive = small, poorly fitted or top-dose-only effect; inactive = flat fitted curve, though single readings scatter; cell line not stated here;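 note: potency is the fitted concentration of half-maximal effect; % of control where 0% means no effect; nearly all actives have a fitted effect of over 65% in size; a mitochondrial uncoupler was the plate control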
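PINK1 protein, normally rapidly degraded, was detected by immunofluorescence after 24 hour compound treatment of a stable cell line. Titration data (5 concentrations) came from laser-scanning cytometry, with CCCP-treated wells as controls.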
Menin MLL FP FL: menin-MLL binding inhibition, fluorescein peptide | Fluorescence polarization, fluorescein-MLL peptide displacement from menin | FP activity change, % at 61.4 µM | 290,000 tested, under 10 active; inconclusive = falling polarisation curve, or a change in total fluorescence; inactive = total fluorescence flat and polarisation flat or rising; no compound was filed as active; the % refers to the polarisation; negative = inhibition;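 note: % of control where 0% means no effect; inhibitors lower the polarisation; unlabelled MLL peptide was the positive control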
TRPV1 PAM: human TRPV1 potentiation; potentiation, % at 8.33 µM; AID 540277; 0.02% of 320,000 active; TRPV1-expressing cells, Fluo-8 calcium influx, capsaicin EC20 potentiation; host cell line not named in the record; control for the full effect not named in the record; Q8NER1; active means potentiation above 80%; inconclusive means 30% to 80%; inactive means below 30%; note: 0% is about no effect
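TRPV1-expressing cells were cultured overnight at 35.5C and loaded with Fluo-8 calcium dye for 40 to 90 min at room temperature. After a 10 s baseline, compound was added and calcium influx was read kinetically for 3 min (ex 480/em 520 nm).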
TRPML1 agonist: human mucolipin-1 channel agonism | activation, % (no concentration beside the values) | TRPML1-expressing cells, Ca2+ dye fluorescence, FDSS; host cell line not named in the record; reference of the full effect not given here | Q9GZU1 | 0.12% of 410,000 active | AID 624414; in the data active = activation above about 50%; inconclusive = about 30% to 50%; inactive = below about 30%; note: 0% is about no effect; the text of the record puts the active cut at 80%
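Calcium fluorescence on an FDSS kinetic reader gave the read-out. Tet-induced TRPML1-DL cells were plated overnight, dye-loaded (Ca8 with quencher, 45-90 min, room temperature, dark), then read 110 s after compound addition, and again 110 s after 4uM final 54-4 (EC80).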
Active calls of the source: *; ? = inconclusive; · = not tested or not shown; [ ] = dose if it differs, or a comment.

compound	Sfp inh	TRPML1 blocker	ClpP mod	PINK1 expr mod	Menin MLL FP FL	TRPV1 PAM	TRPML1 agonist
O=C(NCc1ccc(Cl)cc1)c1ccc(CNc2c(N3CCCC3)c(=O)c2=O)cc1	-1%	-4	0.1%	1.5%	-0.5	2	-0.3
CCOC(=O)N1CCN(C(=O)COC(=O)CNC(=O)c2ccc(C)cc2)CC1	·	14	2.3%	1.4%	·	-4	0.4
CCOC(=O)N1CCC(N2C(=O)c3ccccc3C2Nc2ccc3c(C)cc(=O)oc3c2)CC1 (stereo not given)	-18%	14	4.5%	0.8%	-3.1	14	0.6
CCNc1nnc(SCC(=O)c2cc(C)n(C3CC3)c2C)s1	·	3	-1.4%	2.8%	·	-14	0.3
COc1ccc(C2=NN(c3nc(C(=O)O)cs3)C(O)(C(F)(F)F)C2)c(OC)c1 (stereo not given)	-5%	2	·	0.0%	-1.0	-12	3.7
CC(=O)NC(CC(=O)NC1CCCCC1)c1ccccc1 (stereo not given)	5%	58	-6.4%	0.1%	0.1	3	-0.4
COc1cccc(NC(=O)c2cc([N+](=O)[O-])ccc2N2CCN(C)CC2)c1	11%	-13	·	-1.4%	3.7	-3	-0.1
CC(=O)NCCc1cc2cc(C)c(C)cc2[nH]c1=O	-3%	-7	?	0.3%	2.8	-2	-1.6
COc1ccccc1Oc1coc2c(CN(C)C)c(O)ccc2c1=O	24%	-13	28µM*	-1.0%	3.0	2	-0.1
COc1ccc(OC)c(/C=N/NC(=O)c2ccc3nc[nH]c3c2)c1	16%	19	·	0.9%	-0.2	·	-0.8
O=C(c1ccc2c(=O)n3c(nc2c1)CCC3)N1CCN(S(=O)(=O)c2cccc(F)c2)CC1	·	-13	·	0.6%	·	9	0.2
COC(=O)c1[nH]c(C)c(/C(O)=C2\C(=O)C(=O)N(CCN(C)C)C2c2ccc(OC)cc2)c1C (stereo not given)	14%	·	·	·	-0.9	-11	·
Cc1nnc(SCc2ccc(C(=O)Nc3cc(Cl)ccc3C)cc2)s1	-8%	4	-0.7%	-1.1%	-0.4	-17	-0.3
N#CCOc1ccccc1CNC[C@H]1O[C@@H](n2cnc(C(N)=O)n2)[C@H](O)[C@@H]1O	·	30	-0.7%	1.3%	·	·	0.0
CCOc1ccc(N=C2C(=O)N(CN3CCOCC3)c3ccccc32)cc1	-7%	-23	-9.2%	-1.3%	3.4	7	0.4
COc1cccc(N2CCN(S(=O)(=O)c3ccc4[nH]c5c(c4c3)CCCC5)CC2)c1	·	25	?	2.5%	·	·	2.4
Cc1cccc2cc(CN(Cc3nnnn3C3CCCC3)C3CCCCC3)c(=O)[nH]c12	·	-5	-6.8%	5.4%[38.3 µM]	·	·	1.7
CC(C(=O)Nc1ccccc1F)N1C(=O)c2ccccc2C1=O (stereo not given)	6%	-1	-1.2%	1.0%	3.8	6	-0.4
Cc1cccc(S(=O)(=O)NC(=O)C2(C)CCN2C(=O)Cc2ccc(C(C)(C)C)cc2)c1 (stereo not given)	·	·	0.0%	0.0%	·	·	0.1
COc1cc(S(=O)(=O)NCC2CCCO2)c(OC)cc1Cl (stereo not given)	15%	16	-1.8%	-0.3%	1.5	7	-0.7
Cc1ccc(C)c(C(=O)CN2C3=NCCCN3c3ccccc32)c1	2%	-4	0.5%	-0.7%[38.3 µM]	22	-7	-0.5
O=C(CSc1nnc2ccccn12)Nc1ccccc1C(=O)O	-9%	26	·	-0.1%	-4.9	-3	1.0
O=C(NCCN1CCOCC1)c1cccs1	4%	-3	0.3%	-0.1%	4.0	-11	1.1
COc1ccc(NC(=S)N2CCc3cc(OC)c(OC)cc3C2)cc1	-2%	23	-11%	1.4%	4.7	-14	0.6
CCCCC(O)(CCCC)C(=O)NN(C(=O)OC)c1ccc(C)cc1	2%	4	0.5%	-0.2%	0.0	-14	0.9
Cc1nc(C(=O)N2CCC(C)(C(=O)NS(=O)(=O)C3CC3)C2)c(C)o1 (stereo not given)	·	27	1.1%	0.6%	·	·	-0.2
OCCCNc1ncnc2c1cnn2-c1ccc(Cl)cc1	0%	0	-25%	1.2%	-12	5	0.8
Cc1cccc(Cn2c(N3CCCCC3C)nc3c2c(=O)[nH]c(=O)n3C)c1 (stereo not given)	-3%	-4	-0.4%	0.9%	3.6	-8	-0.5
Cc1cnc(C(=O)OCc2csc(CC(=O)Nc3ccccc3C)n2)cn1	2%	0	-1.9%	3.1%	·	1	-0.2
Cc1ccc(NC(=O)Nc2cc(S(=O)(=O)N(C)C)ccc2C)cc1	13%	7	-1.3%	6.4%	4.5	6	0.4
CC1CCCN(C(=O)c2sc3cc([N+](=O)[O-])ccc3c2Cl)C1 (stereo not given)	-20%	2	-1.5%	2.3%	5.5	-8	0.8
COc1ccc(CCNC(=S)NC(=O)c2cccc([N+](=O)[O-])c2)cc1OC	2%	25	-8.9%	-0.5%	·	7	3.8
CC(=O)N1CCN(CC(=O)Nc2ccc(Cl)c(S(=O)(=O)N(C)C)c2)CC1	9%	-10	-4.0%	1.0%	3.5	4	1.1
COc1ccccc1N1CCN(C(=O)c2ccc([N+](=O)[O-])s2)CC1	2%	9	?	16%	1.8	-20	-0.2
Cc1ccc(OCCCC(=O)Nc2nc3ccccc3[nH]2)cc1	20%	23	·	3.6%	1.4	20	0.6
CC(C)CNC(=O)C1(C)CCCN1C(=O)c1cccnc1Oc1ccccc1 (stereo not given)	·	59	-4.2%	-0.8%	·	·	-0.8
O=C(CN(C(=O)CCC(=O)Nc1ccccn1)c1ccc2c(c1)OCCO2)NCCc1ccccc1	11%	-1	-1.1%	2.3%	4.5	-6	-0.9
COc1ccc(C2NC(=O)N(C)C3=C2C(=O)N(c2ccc(F)cc2)C3)cc1 (stereo not given)	·	0	-13%	1.2%	·	·	0.0
Cc1onc(-c2ccccc2Cl)c1C(=O)Nc1ccc2c(c1)OCO2	7%	4	1.9%	-1.3%	3.2	1	1.2
COc1cccc(N=Cc2c(O)c3ccccc3oc2=O)c1	-7%	21	·	3.4%	-1.8	-25	0.2
Cc1cc(NC(=O)Nc2cccc(C)c2C)no1	6%	-3	·	-1.1%	-5.4	5	0.8
Nc1ccc(-c2nc3ncccc3o2)c(Cl)c1	11%	-4	·	?	3.5	-6	-0.4
O=C(NC(=S)Nc1cccc([N+](=O)[O-])c1)C1CCCC1	-5%	-12	0.1%	2.4%	1.5	-6	-0.2
Cc1ccc2sc(N3CCN(C(=O)C4=COCCO4)CC3)nc2c1C	·	-11	-4.8%	-5.7%	·	-3	1.8
COc1cc(-c2nnc(SCC(=O)Nc3cccc(C#N)c3)o2)cc(OC)c1OC	·	10	-1.3%	0.1%	·	·	-1.0
COCCNC(=O)c1cc2c(-c3ccc(Cl)cc3)nn(C)c2s1	10%	-17	5.0%	0.9%	0.0	11	-0.3
O=C(Cc1c[nH]c2ccccc12)NC1(C(=O)NC2CCCCC2)CCCCC1	1%	11	-2.8%	0.7%	1.2	?	0.2
O=C(Oc1ccccc1N1C(=O)C2CCCCC2C1=O)c1ccc(Cl)cc1 (stereo not given)	7%	-5	-2.8%	-4.4%	-0.3	-17	2.1
Cc1c(Cl)cccc1NC(=O)CCN1CCOCC1	0%	8	1.4%	1.5%	-1.5	-1	0.1
COc1cc(C(C)=O)ccc1OCC(=O)NCC(c1ccc(F)cc1)N1CCOCC1 (stereo not given)	·	12	·	-3.2%	·	·	0.0

Fetched one by one from above, three records:
compound	Sfp inh	TRPML1 blocker	ClpP mod	PINK1 expr mod	Menin MLL FP FL	TRPV1 PAM	TRPML1 agonist
O=C(Oc1ccccc1N1C(=O)C2CCCCC2C1=O)c1ccc(Cl)cc1 (stereo not given)	7%	-5	-2.8%	-4.4%	-0.3	-17	2.1
COc1cc(-c2nnc(SCC(=O)Nc3cccc(C#N)c3)o2)cc(OC)c1OC	·	10	-1.3%	0.1%	·	·	-1.0
COc1ccccc1N1CCN(C(=O)c2ccc([N+](=O)[O-])s2)CC1	2%	9	?	16%	1.8	-20	-0.2

Additional records.
compound	Sfp inh	TRPML1 blocker	ClpP mod	PINK1 expr mod	Menin MLL FP FL	TRPV1 PAM	TRPML1 agonist
NCC(c1ccco1)c1c[nH]c2ccccc12 (stereo not given)	16%	-10	-1.6%	3.0%	4.4	-1	0.6
O=C(Nc1ccc(OCCO)cc1)c1csc([C@@H]2C[C@H](O)[C@@H](CO)O2)n1	·	·	0.7%	-0.4%	·	·	-0.3
O=c1[nH]c(=S)[nH]c2c1[C@H](CCc1cccc(Cl)c1)O[C@H](C1CC1)C2	·	·	1.0%	1.1%	·	·	-0.8
COc1ccc(NS(=O)(=O)c2ccc(NC(=S)NC(=O)c3cccnc3)cc2)nn1	-38%	13	·	0.5%	-4.8	5	-0.5
CN(CC(=O)Nc1ccccc1C(=O)NC1CC1)Cc1ccc(N(C)C)cc1	·	1	0.3%	-1.0%	·	12	-0.4
CS(=O)(=O)c1ccc2nc(NC(=O)c3ccc(NS(=O)(=O)c4ccc(F)c(F)c4)cc3)sc2c1	-19%	26	3.3%	2.7%	3.1	-1	-0.5
